D2 agonist: Beta-Arrestin HTS for Positive Allosteric Modulators of the Human D2 Dopamine Receptor: Agonists; D(2) dopamine receptor (Homo sapiens), P14416; DiscoveRx PathHunter D2 beta-arrestin, luminescence, 90 min; 100% = 57 uM dopamine signal; activation, % (concentration not given with the values); hit rate 0.084% among 360,000; AID 624465, 2012; in the data active = activation above about 40%; inconclusive = about 15% to 40%; inactive = below about 15%; note: compound concentration not given in the record; the text of the record calls up to 30% inactive
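DiscoveRx PathHunter D2 beta-arrestin cells (2,100/well) attached overnight, then compound-stimulated 90 min at 37 C in HBSS/10 mM HEPES/0.1% Tween-20 buffer; beta-galactosidase complementation read by luminescence after 1 h at ambient temperature. Dopamine 57 uM final (EC100) as control.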
Six1-Eya2 blk: qHTS Assay for Inhibitors of the Six1/Eya2 Interaction; hit rate 0.56% among 360,000; activity change, % (test concentration not listed); AlphaScreen GST-Six1/His-Eya2 binding, biochemical; active compounds read low; control for the full effect not named in the record; Homeobox protein SIX1 (Homo sapiens) + Protein phosphatase EYA2 (Homo sapiens), …; in the data active = activity change below about -65%; inconclusive = about -30% to -65%; inactive = above about -30%; note: % is set by controls: 0 for no effect and ±100 for the full control effect
Target sequence (O00167 whole entry, looked up): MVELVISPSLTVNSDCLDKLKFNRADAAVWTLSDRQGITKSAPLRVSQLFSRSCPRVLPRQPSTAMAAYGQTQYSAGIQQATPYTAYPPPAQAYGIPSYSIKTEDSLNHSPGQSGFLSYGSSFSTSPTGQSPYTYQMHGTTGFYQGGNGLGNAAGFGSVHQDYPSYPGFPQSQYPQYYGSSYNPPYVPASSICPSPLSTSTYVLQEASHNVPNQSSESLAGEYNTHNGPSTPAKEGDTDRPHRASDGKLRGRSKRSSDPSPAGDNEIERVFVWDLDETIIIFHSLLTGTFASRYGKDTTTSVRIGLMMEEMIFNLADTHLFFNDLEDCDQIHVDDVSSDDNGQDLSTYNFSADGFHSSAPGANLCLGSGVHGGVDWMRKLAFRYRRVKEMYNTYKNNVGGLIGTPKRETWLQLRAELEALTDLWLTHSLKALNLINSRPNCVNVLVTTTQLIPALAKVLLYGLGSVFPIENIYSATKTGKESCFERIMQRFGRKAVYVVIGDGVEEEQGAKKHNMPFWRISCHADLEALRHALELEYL
Target sequence (Q15475 whole entry, looked up): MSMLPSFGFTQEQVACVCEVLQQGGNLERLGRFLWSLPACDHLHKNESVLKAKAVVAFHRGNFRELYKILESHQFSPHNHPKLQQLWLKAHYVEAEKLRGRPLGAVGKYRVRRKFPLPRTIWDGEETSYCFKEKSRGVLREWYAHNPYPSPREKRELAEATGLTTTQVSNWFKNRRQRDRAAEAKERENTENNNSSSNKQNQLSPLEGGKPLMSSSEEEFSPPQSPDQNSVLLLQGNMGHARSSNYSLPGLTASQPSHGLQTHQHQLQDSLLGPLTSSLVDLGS
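Homogeneous AlphaScreen proximity assay pairing GST-Six1 with His-tagged Eya2 (added as 5X mix: 250 nM and 500 nM) in 50 mM Tris pH 8.0, 300 mM NaCl, 1 mM TCEP. Glutathione donor and nickel acceptor beads; 1 h, 37 °C, dark.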
D2 PAM: Beta-Arrestin HTS for Positive Allosteric Modulators of the Human D2 Dopamine Receptor: Potentiators | DiscoveRx D2 beta-arrestin cells, luminescence, 90 min; 100% = 57 uM dopamine signal | potentiation, % (no concentration beside the values) | hit rate 0.23% among 360,000 | AID 624464, 2012; active = potentiation of 50% or more; inconclusive = 30% to 50%; inactive = 30% or less;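 note: compound concentration not given in the record; tested on top of an EC20 dose of dopamine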
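PathHunter beta-arrestin assay in DiscoveRx D2 cells. Compounds were added with an EC20 of dopamine (50 nM final) for 90 min at 37 deg C. Luminescence was read 1 h after detection reagent, with 57 uM dopamine as the EC100 control.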
CtBP-E1A blk: qHTS Assay for Inhibitors of the CtBP/E1A Interaction | AID 651724, 2012 | CtBP / adenovirus E1A interaction (AlphaScreen) | AlphaScreen GST-E1A/His-CtBP binding, 1536-well; active compounds read low; control for the full effect not named in the record | activity change, % (test concentration not listed) | hit rate 0.49% among 340,000; in the data active means activity change below about -65%; inconclusive means about -30% to -65%; inactive means above about -30%; note: % is set by controls: 0 for no effect and ±100 for the full control effect
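In 5 uL wells, 23 nL compound meets equimolar GST-E1A and His-CtBP (5X stock 125 nM each) for 2 h, 37 °C. Beads (5X, 50 ug/mL) then 1 h, 37 °C, dark.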
gsp antag: qHTS for Antagonists of gsp, the Etiologic Mutation Responsible for Fibrous Dysplasia/McCune-Albright Syndrome: qHTS; Potency, µM (doses to about 76.9 µM), for inactives: at the highest dose activity change, negative = inhibition, hits mostly inhibitors; hit rate 0.4% among 340,000; AID 624288, 2012; gsp-mutant cells, cAMP HTRF, 30 min; control for the full effect not named in the record; active = falling curve of any shape with a large fitted effect; inconclusive = falling curve, mostly with a smaller effect; inactive = flat or rising curve; cell line not stated here;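 note: intracellular cAMP measured with PDE inhibitor Ro 20-1724 present during compound exposure; potency is the fitted concentration of half-maximal effect; % is set by controls: 0 for no effect and ±100 for the full control effect; nearly all actives have a fitted effect of over 65% in size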
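Cells, 2000/well, grown 16–24 h in DMEM 10% FBS with 0.5 mg/ml G418, then compounds plus […] (300 uM addition stock), 30 min at 37C. cAMP read by HTRF (cAMP-d2 and anti-cAMP antibody-K in lysis buffer) after 30 min RT.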
gsp ag: qHTS for Agonist of gsp, the Etiologic Mutation Responsible for Fibrous Dysplasia/McCune-Albright Syndrome: qHTS. gsp mutant cells, cAMP HTRF, 30 min; control for the full effect not named in the record. Potency, µM (top dose mostly 76.9 µM), for the others: at the highest dose activation (cAMP increase), most hits filed as activators. hit rate 0.13% among 340,000; active = well fitted activation curve with a large enough effect; inconclusive = small, poorly fitted or top-dose-only effect, or another doubt; inactive = no such curve, though single readings can be large or run the other way; cell line not stated here;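 note: phosphodiesterase inhibitor Ro 20-1724 added with compounds to block cAMP breakdown; potency is the fitted concentration of half-maximal effect; nearly all actives have a fitted effect of over 60% in size; about a fifth of the inactives were tested at one dose only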
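Cells in DMEM/10% FBS with G418 were pretreated with compounds in DMSO plus […] (300 uM stock) for 30 min at 37C. cAMP was measured by HTRF (cAMP-d2 plus anti-cAMP antibody-K) after 30 min at room temperature.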
* hit, by the source's call; ? = inconclusive; / = not tested or not shown; [ ] = dose if it differs, or a comment. Hits appear at their usual frequency; overall some 1.4% were active at least once.

#1 CC1=NNC(=O)C1Cc1ccc(F)cc1 (stereo not drawn)
#2 CCc1nc2ccc(C(=O)N(C)CCCN(C)C)cn2c1N(C=O)CCC(C)C
#3 CC(CC(=O)Nc1nnc(C(C)(C)C)s1)c1ccccc1 (stereo not drawn)
#4 CN1CC=C2C(C#N)=C(N)C(C#N)(C#N)[C@H](c3ccoc3)[C@H]2C1
#5 CCOC(=O)N1CCC(=NNc2nc(C)cc(=O)[nH]2)CC1
#6 Cc1nc2ccccc2c2c1C(=O)N(C1CCCCCCC1)C2=O
#7 Cc1cccc(-c2nnc(SCCC(=O)N3CCOCC3)o2)c1
#8 O=C(c1cccc(S(=O)(=O)N2CCN(c3ccccc3)CC2)c1)N1CCCC(C(F)(F)F)C1 (stereo not drawn)

Assay by compound,1,2,3,4,5,6,7,8
D2 agonist,5.1,-5.6,3.6,3.2,-2.4,-0.4,-1.8,2.8
Six1-Eya2 blk,-6,4,-2,?,-5,1,5,-9
D2 PAM,4,-7,-1,-4,-9,-10,-1,22
CtBP-E1A blk,15,13,/,?,4,-7,-2,4
gsp antag,10%,/,9%,-17%,5%,-2%,12%,-16%
gsp ag,-3%[15.4 µM],/,17%,?,-36%[inhibitor],-32%[inhibitor],-4%[15.4 µM],11%

#9 CN(CC(=O)Nc1cccc(F)c1)C(=O)C1CC(=O)N(Cc2ccccc2)C1 (stereo not drawn)
#10 Cc1ccccc1NC(=O)C1C2CCCC1C2c1ccccc1 (stereo not drawn)
#11 COc1cc(C(=O)NCCC(=O)NCc2ccc3c(c2)OCO3)cc(OC)c1OC
#12 CC1Sc2ccc(S(=O)(=O)N3CCN(c4cccc(Cl)c4)CC3)cc2NC1=O (stereo not drawn)
#13 O=C1CC(Sc2nnc(-c3ccccc3O)o2)C(=O)N1c1ccccc1 (stereo not drawn)
#14 CC(Oc1ccccc1)C(=O)NNS(=O)(=O)c1ccc([N+](=O)[O-])cc1 (stereo not drawn)
#15 CC(C)(C)NC(=O)C1Cc2ccccc2CN1C(=O)Nc1ccccc1Cl (stereo not drawn)
#16 C#CCOCCOCCOCCNc1nc(N2CCOCC2)nc(N2CCN(C(=O)[C@H](Cc3cc4ccccc4[nH]3)n3cc([C@@H](N)C(C)CC)nn3)CC2)n1 (stereo partly drawn)

Assay by compound,9,10,11,12,13,14,15,16
D2 agonist,-0.6,-0.8,-1.3,-4.3,-2.9,1.1,-2.7,-1.3
Six1-Eya2 blk,2,9,-2,-3,-1,4,-1,-5
D2 PAM,8,4,-10,-4,1,6,10,-12
CtBP-E1A blk,5,4,-11,/,-10,5,8,-2
gsp antag,5%,-9%,3%,-8%,-10%,-3%,-6%,14%
gsp ag,-3%,-19%,7%,1%,-1%,-85%[inhibitor],-24%,/

#17 O=C(Nc1nnc([C@@H]2C[C@H](O)[C@@H](CO)O2)s1)c1c(F)cccc1F
#18 O=C(NCCc1c[nH]c2ccccc12)c1c(Cl)nc2sccn12
#19 CC1=C(C(=O)N(C(C)C)C(C)C)CC(CC(=O)NCCCN(C)C)C(=O)N1Cc1ccc(F)cc1 (stereo not drawn)
#20 O=C(NN1CCN(Cc2ccccc2Cl)CC1)c1ccc(Cl)cc1
#21 CC(=O)Nc1ccc(S(=O)(=O)NC2CC(=O)N(c3ccc(C)cc3)C2)cc1 (stereo not drawn)
#22 COCCCNC(=O)Nc1ccc2c(c1)N(C)C(=O)CS2
#23 COc1ccc(Cn2c(=O)[nH]c3cc(C(=O)Nc4ccc(N5CCN(C)CC5)cc4)ccc32)cc1
#24 C=CCN(C(=O)CCS(=O)(=O)c1cccc2nsnc12)c1ccccc1

Assay by compound,17,18,19,20,21,22,23,24
D2 agonist,-2.1,-2.5,2.3,-0.5,-5.8,-3.3,0.3,-2.9
Six1-Eya2 blk,1,9,-1,3,3,-2,0,2
D2 PAM,-4,0,-2,-38,2,-11,-12,-6
CtBP-E1A blk,0,-2,2,0,1,5,-16,-8
gsp antag,/,-3%,/,-10%,-4%,-13%,-3%,3%
gsp ag,/,23%,/,-41%[inhibitor],20%[15.4 µM],-21%,25%,24%[15.4 µM]

#25 CCOC(=O)N1CCC(NC(=O)CCC(=O)N2CCOc3ccc(Cl)cc32)CC1
#26 C[C@H](CO)N1C[C@H](C)[C@@H](CN(C)Cc2ccc(Oc3ccccc3)cc2)Oc2cc(Br)ccc2S1(=O)=O
#27 OCCN(CC#CCC(O)(c1ccccc1)C1CCCC1)CCO (stereo not drawn)
#28 COc1ccc(CCNC(=O)C(=O)NCc2ccccc2C)cc1OC
#29 COc1cc(/C=N/n2nnnc2N)ccc1OCC#N
#30 COc1ccc(Cl)cc1C(=O)O/N=C(\N)c1ccc(Cl)cc1
#31 CCc1sc(C(=O)NNC(=O)CNC(=O)c2ccccc2F)cc1C
#32 COc1c(C(CC(C)C)OC(C)=O)ccc2c1C(=O)OCc1cc(C)cc(O)c1O2 (stereo not drawn)

Assay by compound,25,26,27,28,29,30,31,32
D2 agonist,0.0,-9.1,-4.2,3.0,-0.2,5.2,-2.1,6.0
Six1-Eya2 blk,9,-10,3,1,-1,-18,9,-9
D2 PAM,-6,2,-2,-2,25,26,-4,-14
CtBP-E1A blk,-5,-2,-5,10,/,1,/,-7
gsp antag,-44%,/,8%,6%,3%,-12%,5%,-22%
gsp ag,16%[15.4 µM],30%,-12%[15.4 µM],5%[15.4 µM],-22%,9%[15.4 µM],17%,/

#33 O=C(c1cc2nc(-c3ccco3)cc(C(F)(F)F)n2n1)N1CCN(c2ccc(F)cc2)CC1
#34 Cn1c(CNc2ccc(Cl)cc2)nnc1SCc1ccccc1
#35 Cc1ccc(NC(=S)NCC(C)C)cc1
#36 COc1ccc(N2CC(C(=O)NCc3n[nH]c(=O)c4ccccc34)CC2=O)cc1 (stereo not drawn)
#37 CSCCC(NC(=O)C1CCC(C)CC1)C(=O)OCC(=O)c1ccc(Cl)cc1 (stereo not drawn)
#38 CN1CCC(N(C)C(=O)/C(C#N)=C/c2ccc(OC(F)F)cc2)CC1
#39 COc1ccc(CCNC(=O)CCC(=O)N2CCN(S(=O)(=O)c3ccccc3)CC2)cc1OC
#40 Cc1ccc(S(=O)(=O)N2CCC(=O)N(C(COCc3cccc(C)c3)C(C)C)CC2)cc1 (stereo not drawn)

Assay by compound,33,34,35,36,37,38,39,40
D2 agonist,2.2,-5.7,-2.0,-6.2,-0.2,-4.8,-1.3,0.3
Six1-Eya2 blk,-23,3,12,-7,14,2,0,-3
D2 PAM,-8,-11,-7,-6,0,-12,4,2
CtBP-E1A blk,-15,-2,-2,12,-8,/,8,0
gsp antag,5%,1%,11%,8%,10%,14%,-6%,-13%
gsp ag,0%,-24%,2%,-49%[inhibitor],-21%[15.4 µM],9%,1%,0%

A different layout for 4 compounds above.
[17] O=C(Nc1nnc([C@@H]2C[C@H](O)[C@@H](CO)O2)s1)c1c(F)cccc1F
  D2 agonist: -2.1
  Six1-Eya2 blk: 1
  D2 PAM: -4
  CtBP-E1A blk: 0
  gsp antag: /
  gsp ag: /

[2] CCc1nc2ccc(C(=O)N(C)CCCN(C)C)cn2c1N(C=O)CCC(C)C
  D2 agonist: -5.6
  Six1-Eya2 blk: 4
  D2 PAM: -7
  CtBP-E1A blk: 13
  gsp antag: /
  gsp ag: /

[20] O=C(NN1CCN(Cc2ccccc2Cl)CC1)c1ccc(Cl)cc1
  D2 agonist: -0.5
  Six1-Eya2 blk: 3
  D2 PAM: -38
  CtBP-E1A blk: 0
  gsp antag: -10%
  gsp ag: -41%[inhibitor]

[34] Cn1c(CNc2ccc(Cl)cc2)nnc1SCc1ccccc1
  D2 agonist: -5.7
  Six1-Eya2 blk: 3
  D2 PAM: -11
  CtBP-E1A blk: -2
  gsp antag: 1%
  gsp ag: -24%

The list continues:
#41 Cn1cc(Br)c(-c2cccc(NC(=O)CCCC(=O)O)c2)n1
#42 CC(C)CC(=O)NC(=S)Nc1cc(C(=O)O)ccc1Cl
#43 Cc1cc(C(=O)COC(=O)c2n[nH]c(=O)c3ccccc23)c(C)n1C
#44 COc1ccccc1NC(=O)N1CCCC1C(=O)NCc1ccc(F)cc1 (stereo not drawn)
#45 Cc1ccc(N(CC(=O)NCc2ccco2)C(=O)CCC(=O)Nc2nccs2)cc1
#46 CC(=O)N(C)c1nc(-c2ccc(Cl)cc2)cs1
#47 CCCCNC(=O)C1=C(N)C(C(=O)Nc2ccc(C)c(S(=O)(=O)N3CCCCC3)c2)SC1=Nc1ccc(C)cc1C (stereo not drawn)
#48 O=C(c1ccc(Cl)cc1)c1ccc(CN2C(=O)c3ccccc3C2=O)o1

Assay by compound,41,42,43,44,45,46,47,48
D2 agonist,-2.0,-1.1,-2.3,-1.0,0.2,0.6,1.1,0.0
Six1-Eya2 blk,-3,-1,1,2,-4,-2,-5,0
D2 PAM,-6,-5,-5,-7,-11,-10,-6,3
CtBP-E1A blk,7,10,/,4,2,4,1,1
gsp antag,6%,-20%,10%,6%,9%,2%,1%,9%
gsp ag,29%[15.4 µM],-2%[15.4 µM],5%,4%,0%[15.4 µM],-3%,-38%[inhibitor],8%

#49 COc1ccccc1C(=O)NCCc1nc2ccccc2n1C
#50 COC(=O)c1sc2ccccc2c1NC(=O)c1ccc(S(=O)(=O)N2CCC(C)CC2)cc1
#51 Cc1ccc(Cc2c(-c3ccc(C#N)cc3)nc3ccc(Br)cn23)cc1
#52 CCOCCCNC(=O)c1oc2ccc(S(=O)(=O)N3CCOCC3)cc2c1C
#53 CCN(CC)C(C(=O)Nc1ccc2c(c1)OCO2)c1ccccc1 (stereo not drawn)

Assay by compound,49,50,51,52,53
D2 agonist,-7.0,-2.6,-1.6,0.5,0.6
Six1-Eya2 blk,-2,16,18,1,6
D2 PAM,-12,-3,1,-4,-14
CtBP-E1A blk,2,3,19,4,7
gsp antag,11%,-16%,/,-34%,9%
gsp ag,4%[15.4 µM],5%,19%,12%[15.4 µM],9%

Screens from PubChem BioAssay.
